# Screening results (PubChem)
# StopGo FLuc: lowers the firefly signal of an FMDV 2A StopGo reporter; HEK cells with a luciferase reporter of 2A StopGo recoding; Potency, µM (highest dose often 57.5 µM), for the others: at the top dose signal change, negative = less light; 120,000 compounds, 0.23% hits; AID 1745856; active = well fitted falling curve with a large enough effect; inconclusive = small, poorly fitted or top-dose-only effect; inactive = no such curve, though single readings can be large or run the other way; also: nearly all actives have a fitted effect of over 60% in size; overnight with compound
# 2A Renilla: lowers the Renilla signal of an FMDV 2A StopGo reporter; HEK cells with a luciferase reporter of 2A StopGo recoding; Potency, µM (top dose mostly 57.5 µM), for the others: top-dose signal change, negative = less light; 120,000 compounds, 0.32% hits; AID 1745857; active means well fitted falling curve with a large enough effect; inconclusive means small, poorly fitted or top-dose-only effect; inactive means no such curve, though single readings can be large or run the other way; also: nearly all actives have a fitted effect of over 55% in size; overnight with compound
# An asterisk follows results filed as active; u = inconclusive; & = joins results of further samples; [ ] = remark or other dose. % is scaled to controls: 0 for no effect and ±100 for the full control effect; potency is read from the fitted curve at half-maximal effect. A portion of the library; the hit share may differ from the screen's.
SMILES,StopGo FLuc,2A Renilla
O=C(CCc1ncc(-c2ccccc2F)o1)N1CCN(S(=O)(=O)c2cc(F)ccc2F)CC1,19%,-7%
Cc1cnc2c(S(=O)(=O)N3CCCCC3)cccc2c1,46%[activator],98%[activator]
O=C(Nc1ccc2nc(SCC(=O)N3CCCC3)sc2c1)c1cccc(F)c1,56%&-21%[activator],24%&-12%
COc1ccc(C(=O)Nc2ccc3nc4c(c(Nc5ccccc5OC)c3c2)CCCC4)c(OC)c1,-16%,-8%
O=C(NCCNC(=O)c1cc2ccccc2[nH]1)C(=O)NCc1ccccc1,37%[activator],7%
CN(C)CC[C@@H](c1ccc(Cl)cc1)c1ccccn1,6%[11.5 µM],-12%
CCOc1ccc(NC(=O)c2nnn(-c3ccc(F)c(Cl)c3)c2C)cc1,-12%,-7%
N#C/C(C(=O)CCl)=C(/c1ccc(F)cc1)N1CCOCC1,-2%,-3%
COc1ccc(-c2nc(Cn3nnc(C(=O)NCc4ccc(Cl)cc4)c3N)c(C)o2)c(OC)c1,-4%,-12%
O=C(O)c1ccc(NC(=O)c2ccc(Br)o2)c(NC(=O)c2ccc(Br)o2)c1,36%[activator],1%
CCCCN(CCCC)S(=O)(=O)c1ccc(NC(=O)c2c(-c3ccccc3)noc2C)cc1,0%,33%[activator]
COc1cccc(CNC(=O)C(=O)Nc2c3c(nn2-c2ccccc2)CSC3)c1,-18%,-20%
Cc1ccc(CNC(=O)N2CCC3(CC2)Nc2ccccc2-n2cccc23)cc1,-6%,-22%
CCOc1ccc(NC(=O)NC(C)c2c(-n3cccc3)sc(C)c2C)cc1 (configuration not stated),0%,u
O=C(OCc1ccccc1Cl)c1cccc(CN2CCCC2=O)c1,251%[activator],125%[activator]
CCNc1c(NC(=O)c2c(F)cccc2F)c(=O)oc2ccccc12,3%,8%
COc1ccc(C(C)=O)cc1CO/N=C/c1ccc(OC(F)F)cc1,0%,36%[activator]
Cc1nc2c3ccccc3nn2c(C)c1CCC(=O)Nc1ccc(C(N)=O)cc1,-3%,-9%
COc1ccc(C(=O)/C(=C\c2ccc(C)o2)c2nc3ccccc3o2)cc1,83%[activator],36%[activator]
CCCCn1c(=O)[nH]c(=O)c2c1nc(CCC(=O)NCCCO)n2CC(C)C,-9%,-9%
CN(CC(=O)Nc1ccc2c(c1)OCO2)Cc1cccs1,201%[activator],83%[activator]
COc1ccccc1NS(=O)(=O)c1cccc(NC(=O)c2[nH]c(C)c(C(C)=O)c2C)c1,u,73%[activator]
CCc1ccc(-n2nc(C)c3c2NC(=O)CSC3c2ccc(OC)cc2OC)cc1 (configuration not stated),u,u
Cc1cn2c(=O)cc(CSc3ccccc3NC(=O)COc3ccccc3C)nc2s1,-10%,5%
CCc1cccc(CC)c1NC(=O)Cn1nnc2sc3c(c2c1=O)CCCC3,-14%,-10%

# A section of the results above, for reference:
SMILES,StopGo FLuc,2A Renilla
CN(C)CC[C@@H](c1ccc(Cl)cc1)c1ccccn1,6%[11.5 µM],-12%
CCOc1ccc(NC(=O)c2nnn(-c3ccc(F)c(Cl)c3)c2C)cc1,-12%,-7%
N#C/C(C(=O)CCl)=C(/c1ccc(F)cc1)N1CCOCC1,-2%,-3%

# Part of the list above in order of length of the SMILES, falling.
SMILES,StopGo FLuc,2A Renilla
CCCCN(CCCC)S(=O)(=O)c1ccc(NC(=O)c2c(-c3ccccc3)noc2C)cc1,0%,33%[activator]
Cc1nc2c3ccccc3nn2c(C)c1CCC(=O)Nc1ccc(C(N)=O)cc1,-3%,-9%
CCc1cccc(CC)c1NC(=O)Cn1nnc2sc3c(c2c1=O)CCCC3,-14%,-10%
CCNc1c(NC(=O)c2c(F)cccc2F)c(=O)oc2ccccc12,3%,8%

# Next entries:
SMILES,StopGo FLuc,2A Renilla
COc1cc(C(=O)Nc2ccc(C)c(S(=O)(=O)N3CCCCCC3)c2)cc(OC)c1OC,u,u
COc1ccccc1CNC(=O)CC(c1ccc(F)cc1)N1Cc2ccccc2C1=O (configuration not stated),-14%,72%[activator]
CCc1ccc(-c2nc3ccc(Br)cc3c(C(=O)O)c2C)s1,0%,41%[activator]
CCOC(=O)c1cnc2c(ccc3ccccc32)c1Nc1cccc(Cl)c1,-6%,-2%
CCC1(c2ccccc2)CCC(=O)NC1=O (configuration not stated),-5%,4%
Cc1cc(OC(C)C(=O)N2CCC(c3nc4ccccc4o3)CC2)ccc1Cl (configuration not stated),u,u
CCCCN(CC)CCCNC(=O)c1cn(C)c2ccc(S(=O)(=O)N(C)C3CCCCC3)cc2c1=O,-12%,-11%
Cc1cccc(N2C(=O)C(CC(=O)Nc3ccc(F)cc3)N(C3CCCC3)C2=O)c1 (configuration not stated),-18%,98%[activator]
CCCNC(=O)C12CC3CC(C1)CC(c1ccccc1)(C3)C2,-27%,-29%
CC(=O)C1=C(c2ccc(C)cc2)N(C(C)=O)n2c(nnc2-c2ccccc2)S1,-15%,-7%
Cc1cc2c(C)c(C)[nH]c2cc1Br,13%,-25%
Cc1ccc(NC(=O)Cn2cc(S(=O)(=O)N3CCC(C)CC3)c3ccccc3c2=O)c(Br)c1,-14%,-7%
Cc1ccc(Nc2nnc(SCC(=O)c3ccc(Cl)s3)s2)c(C)c1,44%[activator],31%[activator]
CC(C)(C)Sc1ccc2nn(CC(=O)NCc3ccc(Cl)cc3)c(=O)n2n1,28%,-13%
CN(C)C(=O)Cc1cccc(F)c1,15%,7%
CC(C)Oc1ccc(C(=O)NCC(c2ccc(N(C)C)cc2)N2CCCC2)cc1 (configuration not stated),-16%,-13%
Cc1cc(Cl)ccc1OCC(=O)NC1CCN(C)CC1,-5%,-16%
O=C(O)Cc1ccc(N2C(=O)C(=O)/C(=C(/O)c3ccccc3Cl)C2c2ccccc2F)cc1 (configuration not stated),4%,-8%
COC(=O)COc1ccc(Oc2nc(NC(C)(C)C)nc(N(C)C)n2)nn1,-2%,2%
NC(=O)COc1cccc(C2CC(=O)Nc3nc(N4CCCCC4)sc32)c1 (configuration not stated),51%[activator],33%[activator]
CC(C)NC(=O)CSc1nnc(-c2cccnc2)n1C,-3%,-4%
CCN1C(=O)c2ccccc2S(=O)(=O)c2ccc(C(=O)NCc3ccc(C)cc3)cc21,-11%,16%
COC(=O)C1CN(C2CC2)CCS(=O)(=O)N1Cc1cn(Cc2ccc(C)cc2)nn1 (configuration not stated),-5%,-2%
CCc1noc2ncnc(N3CCCC(C(=O)NCc4cccc(OC)c4)C3)c12 (configuration not stated),-23%,-25%
CN(CC(=O)Nc1ccc(Cl)c(C(F)(F)F)c1)Cc1cc(F)cc2c1OCOC2,u,u

# Looked up by compound from the entries so far (seven):
SMILES,StopGo FLuc,2A Renilla
COC(=O)C1CN(C2CC2)CCS(=O)(=O)N1Cc1cn(Cc2ccc(C)cc2)nn1 (configuration not stated),-5%,-2%
CN(CC(=O)Nc1ccc(Cl)c(C(F)(F)F)c1)Cc1cc(F)cc2c1OCOC2,u,u
CCc1noc2ncnc(N3CCCC(C(=O)NCc4cccc(OC)c4)C3)c12 (configuration not stated),-23%,-25%
Cc1cc(Cl)ccc1OCC(=O)NC1CCN(C)CC1,-5%,-16%
CCOC(=O)c1cnc2c(ccc3ccccc32)c1Nc1cccc(Cl)c1,-6%,-2%
COC(=O)COc1ccc(Oc2nc(NC(C)(C)C)nc(N(C)C)n2)nn1,-2%,2%
COc1cc(C(=O)Nc2ccc(C)c(S(=O)(=O)N3CCCCCC3)c2)cc(OC)c1OC,u,u

# Later entries
SMILES,StopGo FLuc,2A Renilla
N#Cc1nc(C2CC2)oc1N1CCN(C(=O)c2ccc(F)c(F)c2)CC1,-1%,-6%
COc1ccc2c(c1)c1c(c(=O)n(-c3ccc(F)c(Cl)c3)c(=O)n1Cc1cccc(C)c1)n2C,-7%,-3%
CCOc1ccc(Br)cc1C1C(C(=O)Nc2ccccc2OC)=C(C)Nc2nnnn21 (configuration not stated),-7%,-14%
CC(C)c1ccc(C(=O)Nc2ccc(-c3nc4ccccc4s3)c(Cl)c2)cc1,4%,-15%
Cn1cnnc1SCC(=O)Nc1cc(C(=O)O)cc(C(=O)O)c1,-5%,-13%
Cc1cc(C)n(CC(=O)Nc2ccc(C(=O)NCc3ccccn3)cc2)c(=O)c1C#N,-8%,-12%
CN(CCCNC(=O)c1nc2ccccc2c(=O)[nH]1)C(=O)c1cccnc1,71%[activator],-5%
O=C(CNC(=O)C1CCC(CNS(=O)(=O)c2ccc(F)cc2)CC1)NCc1ccccn1 (configuration not stated),-2%,-5%
COc1cc(OC)cc(N2C(=O)c3cc(-c4cccs4)nn3CC2(C)C(=O)NC2CCCCC2)c1 (configuration not stated),-8%,46%[activator]
O=C(O)CN(CC(=O)O)C1CCCCC1N(CC(=O)O)CC(=O)O (configuration not stated),9%,0%
Cc1ccc(C)c(N2CCN(C(=O)C3CCN(S(=O)(=O)c4cn(C)c(C)n4)CC3)CC2)c1,9%,2%
Cc1cccc(C)c1NC(=O)C(C)N (configuration not stated),-13%,-11%
COc1ccc(OC)c(CNC(=O)c2c(C)oc3ncn(C)c(=O)c23)c1,-9%,7%
O=C(Cc1c[nH]c2ccccc12)Nc1nc2ccccc2s1,158%[activator],-23%
CCN(C(=O)Cc1nc(-c2ccc(OC)cc2)no1)c1cccc(Cl)c1,-23%,20%
COC(=O)c1cc(NC(=O)c2ccccc2OC(F)F)c(F)cc1F,16%,3%
Cc1ccc(O)c(NC(=O)c2cc(-c3cccnc3)nc3ccccc23)c1,-4%,-7%
Cc1ccc2nc(COc3cccc(NC(=O)c4cccc(Cl)c4)c3)cc(=O)n2c1,-9%,18%
CC(=O)OC[C@H]1O[C@@](COC(C)=O)(O[C@H]2O[C@H](COC(C)=O)[C@@H](OC(C)=O)[C@H](OC(C)=O)[C@H]2OC(C)=O)[C@@H](OC(C)=O)[C@@H]1OC(C)=O,-16%[11.5 µM],-3%
Cc1ccc(O)cc1,16%[11.5 µM],15%
Cc1oc(-c2ccccc2Cl)nc1CS(=O)(=O)CC(=O)NC(C)CCc1ccccc1 (configuration not stated),0%,16%
COc1ccc(OC)c(C(=O)c2oc3cc(NC(=O)C(C)C)ccc3c2C)c1,70%[activator],16%
CC1=C(C(=O)OC(C)C)C(c2ccc(Br)s2)NC(=O)N1C (configuration not stated),2%,-7%
O=C(Nc1ccnn1Cc1ccc(Cl)cc1)c1cc(=O)c2ccccc2o1,-11%,-6%
C/C(=N/Nc1ccc(S(N)(=O)=O)cc1[N+](=O)[O-])c1ccc(Cl)cc1,12%,-13%
# More results:
SMILES,StopGo FLuc,2A Renilla
Cc1ccc(CNC(=O)c2cnn(-c3ccc(F)cc3F)c2C2CCN(C(=O)OC(C)(C)C)CC2)cc1,-15%,-6%
COc1cccc(/C=C/c2nc3ccccc3c(=O)n2-c2ccc(C)c(C)c2)c1OC,16%,9%
COc1ccc(N2CCCCS2(=O)=O)cc1S(=O)(=O)NCCc1ccccc1,16%,u
COc1ccc(NC(=O)Cn2c3ncccc3c(=O)n2-c2ccc(C)c(C)c2)c(OC)c1,u,-11%
O=C(c1ccc(F)cc1)N(Cc1cccs1)C1CC1,-4%,19%
NC(=O)COc1ccc(C(=O)NCC2(c3ccccc3)CCC2)cc1,136%[activator],0%
O=C(O)c1cccnc1SCc1cccc(C(F)(F)F)c1,54%[activator],-3%
COc1ccc(NC(=O)CSc2nc3ccncc3[nH]2)c(OC)c1,u,u
CCOC(=O)N1CCC(NC(=O)c2cnn(-c3ccc(F)cc3F)c2C2CCN(C(=O)OC(C)(C)C)CC2)CC1,-15%,-6%
CN(C)C(=O)c1[nH]cnc1C(=O)NCC(C)(C)C,13%,8%
N#C/C(=C/c1cn(Cc2ccccc2Cl)c2ccccc12)C(=O)Nc1cccc(Cl)c1,-15%,-3%
Cc1cccc(C(C)C)c1NC(=O)/C=C/c1cccs1,-10%,-7%[1.06 µM]
COc1ccccc1N1CCN(C(=O)Cn2ncc3c([nH]c4ccccc43)c2=O)CC1,-15%,-2%
CC1(C)Cc2c(ccc3ccccc23)C(CCl)N1 (configuration not stated),-23%,-19%
Cc1cc(C)c2[nH]c(-c3ccccc3)c(-c3ccccc3)c2c1,12%,35%[activator]
Cc1noc(-c2ccccc2OCC(=O)Nc2ccccc2[N+](=O)[O-])n1,0%,13%
CCOC(=O)N1CCC(NC(=O)CS(=O)Cc2nc(-c3ccc(C)cc3)oc2C)CC1 (configuration not stated),18%,0%
COc1ccc(CCNC(=O)C(=O)NCc2n[nH]c(=O)c3ccccc23)cc1,-2%,-8%
CC(C)(C)c1ccc(C(=O)N2CC(=O)Nc3ccc(F)cc3C2c2ccc(F)cc2)cc1 (configuration not stated),15%,54%[activator]
O=C(OC1CCCCC1=O)c1ccc(F)cc1Cl (configuration not stated),98%[activator],-19%[1.06 µM]
COc1ccc(NC(=O)C2=C(C)Nc3ncnn3C2c2ccc[nH]2)cc1 (configuration not stated),-9%,-4%
CC(=O)Nc1ccc(-c2csc(NC(=O)c3nn(C)c(=O)c4ccccc34)n2)cc1,16%,-6%
C=CCc1c(C)nc(Nc2nc(C)c3cc(C)ccc3n2)[nH]c1=O,28%,-2%
CC(C)C(=O)Nc1sc2c(c1-c1nc3ccccc3s1)CCN(C(C)C)C2,21%,-1%
CCOc1ccc(C(=O)c2oc3ccccc3c2NC(=O)c2cc(-c3ccc(Cl)cc3)on2)cc1,-28%,u
CCOC(=O)c1cc(NC(=O)c2ccc(-c3cc4ccccc4oc3=O)cc2)ccc1N1CCOCC1,0%,0%
Cn1ccc2nc3ncnn3c(-c3ccccc3)c2c1=O,-3%,-10%
Cc1cccc(-c2nc(SCCCOc3cc(C)c(Cl)c(C)c3)n3[nH]c(=O)cc3n2)c1,-8%,-12%

# Entries of single compounds as entered above. Order of screens: StopGo FLuc | 2A Renilla
# CCOC(=O)N1CCC(NC(=O)c2cnn(-c3ccc(F)cc3F)c2C2CCN(C(=O)OC(C)(C)C)CC2)CC1 across the screens: -15% | -6%
# N#C/C(=C/c1cn(Cc2ccccc2Cl)c2ccccc12)C(=O)Nc1cccc(Cl)c1 across the screens: -15% | -3%
